SmPrx2 inh: inhibitors of Schistosoma mansoni peroxiredoxin 2 | hit rate 0.07% among 65,000 | Potency, µM | AID 448 | S. mansoni Prx2 activity coupled to TGR/GSH (TGR is thioredoxin glutathione reductase), NADPH fluorescence loss, qHTS; some inactives read as strong as hits; active means full or partial inhibition curve with a strong effect at the top dose; inconclusive means weaker partial or single-point curve; inactive means no accepted curve; also: series up to 57 µM; many of its hits are not listed in these tables
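Coupled assay in which S. mansoni TGR passes NADPH reducing equivalents via glutathione to Prx2, which reduces H2O2. Compounds were preincubated 15 min at room temperature with 25 nM TGR/50 nM Prx2 mix. Kinetic NADPH fluorescence loss (ex 365/em 450 nm) was monitored.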
Anthrax LT inh: anthrax lethal toxin internalization inhibition; Cells, anthrax lethal toxin internalization, FRET ratio (460/530); Potency, µM (titrated, usually from 40 µM), for the others: top-dose activity change, negative = inhibition, usual class: inhibitors; hit rate 0.67% among 70,000; active = well fitted falling ratio curve with the 530 nm signal flat; inconclusive = other ratio curves, or a change in one channel alone; inactive = flat curves in the ratio and both channels; the % refers to the ratio; also: % is scaled to controls: 0 for no effect and ±100 for the full control effect; nearly all actives have a fitted effect of over 50% in size; tested in ME-180 cells; beta-lactamase reporter
* = called active by the depositor; ? = inconclusive; . = no result given; & = joins results of further samples; [ ] = dose if it differs, or a comment. Potency is read from the fitted curve at half-maximal effect. This is a subset; count on the stated rates, not on these rows.

compound,SmPrx2 inh,Anthrax LT inh
COC(=O)N1[C@H](C)C=C[C@]1(Cc1ccccc1)C(=O)NCc1ccccn1,.,7%
CCSC(C)CC1CC(=O)CC(=O)C1 (configuration not stated),.,8%
CCOCc1nnc(NS(C)(=O)=O)s1,>57,-6%
Clc1ccc(Cn2nnc(-c3ccc(N4CCOCC4)cc3)n2)cc1,>57,1%
Cn1nc(C(C)(C)C)cc1C(=O)Nc1nc2c(s1)C(=O)CC(C)(C)C2,>57,-2%
O=C(Nc1ccccc1N1CCCC1)c1cccnc1,>57,3%
Cc1c(C(=O)O)oc2ccc(S(=O)(=O)N3CCCCC3C(=O)O)cc12 (configuration not stated),>57,0%
O=C(c1cnc2sccn2c1=O)N1CCc2ccccc2C1,>57,-5%
CSc1nc(-c2ccco2)nn1S(C)(=O)=O,>57,-3%
CCOC(=O)N1CCC(n2c(SCC(=O)NCCC3=CCCCC3)nc3ccccc3c2=O)CC1,>57,18%
COc1cccc(C(=O)NC2CCSC2=O)c1 (configuration not stated),>57,12%
Cc1cc(C)cc(N(CC(=O)N2CCN(c3ccccc3)CC2)S(=O)(=O)c2c(C)noc2C)c1,>57,?
CN(C(=O)c1ccccn1)c1nnc(-c2cnccn2)s1,>57,-20%
CC12COC3(C(=O)Nc4ccc(Cl)cn4)CC1CCC32C (configuration not stated),>57,-5%
CCOC(=O)CBr,.,?
O=C(CCn1c(=O)c2sccc2n(CC(=O)NCc2ccco2)c1=O)NCc1ccccc1,>57,-2%
CCOC(=O)c1[nH]c(Cc2[nH]c(C(=O)OCC)c(C)c2CCC(=O)OC)c(CCC(=O)OC)c1C,>57,-12%
COC(=O)COC(=O)c1ccc(-n2nnnc2SC)cc1,>57,?
CCN(CC)CCNC(=O)NC1CCCCC1,>57,-4%
CCn1c(SCC(=O)NCC(=O)Nc2ccc(F)cc2)nnc1-c1cccs1,>57,3%
CCC(=O)N1CCc2cc(Br)cc(S(=O)(=O)N3CCN(c4ccccn4)CC3)c21,>57,3%
CCS(=O)(=O)NCc1cn2c(C)csc2n1,>57,-9%
COc1ccc(OC)c(NC2c3ncccc3C(=O)N2Cc2ccco2)c1 (configuration not stated),>57,8%
Cc1ccnc(Sc2nc3c(c(=O)[nH]c(=O)n3C)n2CCCc2ccccc2)n1,>57,-6%
O=C(Cn1c(=O)sc2ccccc21)Nc1ccccc1C(=O)O,>57,18%
CCCN(CCC(=O)Nc1cc(OC)cc(OC)c1)CC1CC1,>57,11%
CC(Oc1ccc(Cl)cc1)C(=O)Nc1nccs1 (configuration not stated),>57,-29%
CCCCNC(=O)Nc1ccnn1C1CCCCC1,>57,-11%
NCCCCNS(=O)(=O)c1ccc2c(Cl)cccc2c1,>26,?
O=C1c2ccccc2C(=O)N1Cc1ccco1,>57,-14%
CCOC(=O)c1ccc(N2C(=O)C(C)=C(C)C2=O)cc1,>57,-1%
CC(C)N(Cc1ccccc1)C(=O)c1cnc2n(c1=O)CCS2,>57,24%
CSc1ccc(-c2c(C#N)c(N)nc3c2CCCC3)cc1,?,?
CC1=C(C(N)=O)C(c2ccccc2)n2nc(-c3cccs3)nc2N1 (configuration not stated),>57,-5%
O=C(O)CCC(=O)NCc1ccc2[nH]c3c(c2c1)CCCC3,>57,-6%
Cc1cc(C(=O)Nc2ccccn2)cs1,>57,?
O=C(COc1ncnc2ccccc12)N1CCN(S(=O)(=O)c2ccccc2)CC1,>57,6%
CN(C)CCC=C1c2ccccc2C=Cc2ccccc21,>57&>57&>57,?
COc1ccc(OC)c(NC(=O)C2CCN(c3nc(C)cc(C)n3)CC2)c1,>57,0%
COc1ccc(N2C(=O)C3CCCN3C2c2ccccc2)cc1 (configuration not stated),>57,0%
Cc1c(NC(=O)c2cccc(F)c2)c(=O)n(-c2ccccc2)n1C,>57,-12%
COCCn1cc(C(=O)N2CCC3(CC2)OCCO3)c2c3ccccc3n(C)c2c1=O,>57,12%
N#CC(CC(=O)O)=C(c1ccccc1)c1ccccc1,>57,-10%[8 µM]
CS(=O)(=O)N(CC(=O)N1CCCC1)c1cccc(Cl)c1Cl,.,-16%
CN1CCN(c2ncnc3ccc(-c4ccccc4Cl)cc23)CC1,>57,?
CCCCNC(=O)CCSc1nc2nc(C)cc(C)n2n1,>57,-2%
O=C(Nc1ccc2nc(-c3cccnc3)[nH]c2c1)c1ccco1,>57,12%
CN(C)S(=O)(=O)c1ccc(N2CCOCC2)nc1,>57,-11%
O=C(Nc1ccc2c3c(cccc13)CC2)c1ccco1,>57,-12%
CCc1nc2ccccc2n1Cc1ccccc1OC,>57,?

The results go on.
compound,SmPrx2 inh,Anthrax LT inh
CN(C)CCCN1c2ccccc2Sc2ccc(Cl)cc21,>57&>57,?
Cc1[nH]c2ccccc2c1C(=O)CSc1ncn[nH]1,>57,-7%
N#CCCN1CCN(S(=O)(=O)c2ccc(S(=O)(=O)NCC3CCCO3)cc2)CC1 (configuration not stated),>57,-4%
Cc1c(C(=O)NCc2ccc3c(c2)OCO3)oc2ccc(S(=O)(=O)N3CCCCC3)cc12,>57,.
C#CCN1C(C)=C(C(=O)CCO)[C@@H](c2cccc(-n3oo3)c2)C(C(=O)OC)=C1C,>57,?
CN(C)S(=O)(=O)N1CCC(Cc2ccccc2)CC1,.,-6%
CN(C)/C=N/c1nc2ccc3c(c2s1)CCCC3,>57,2%
Fc1cccc2sc(N3CCOCC3)nc12,>57,2%
COc1ccc(S(=O)(=O)NCCOc2ccccc2)cc1OC,>57,0%
O=C(CN1CCC(n2nnc3ccccc32)CC1)NCc1cccs1,>57,0%
O=C(O)C1(c2ccc(Cl)cc2)CCC1,>57,-11%
CCOc1cc(S(=O)(=O)NCc2ccccn2)c(C)cc1C,>57,6%
CC(C)CCNC(=O)CN(C)S(=O)(=O)c1cccc2nsnc12,>57,13%
COCC(=O)N1CCC[C@@]2(CCN(Cc3nccs3)C2)C1,>57,-1%
COCCNC(=O)c1ccccc1NC(=O)c1ccc(OC)c(OC)c1,>57,7%
COC(=O)[C@@]1(Cc2ccc(OC)cc2)[C@H]2c3cc(C(=O)N(C)C)n(Cc4ccc(O)c(OC)c4)c3C[C@H]2CN1C(=O)c1ccccc1,>57,?
CC(NCCO)C(=O)C12CC3CC(CC(C3)C1)C2 (configuration not stated),>57,-1%
COc1cccc(C(=O)Nc2ccc(NC(=O)C(C)C)nc2)c1,>57,-11%
COc1ccc(N2CCN(C(=O)CN(c3ccccc3)S(C)(=O)=O)CC2)cc1,>57,3%
CC(=O)NC(CCS(C)(=O)=O)C(=O)N1CCc2ccccc21 (configuration not stated),>57,5%
c1ccc(-c2c3ccccc3nc3[nH]c4ccccc4c23)cc1,>57,?
CN(C)c1ncc2nc(-c3ccc(F)cc3)c(=O)n(C[C@H]3CCCO3)c2n1,>57,?
O=c1nc(N(c2ccccc2)c2ccccc2)[nH]c(=O)[nH]1,>57,-16%
CCOC(=O)C1=C(N)Oc2c(oc(CO)cc2=O)C1c1c(F)cccc1Cl (configuration not stated),>57,22%
Cc1cc2c(nc1C)CCCCN2C[C@H](O)CN1CCCc2nc(-c3ccc(Br)cc3)ccc21,.,-5%[8 µM]

Another view of some results above:
Results follow in this order: SmPrx2 inh	Anthrax LT inh
- NCCCCNS(=O)(=O)c1ccc2c(Cl)cccc2c1
  >26	?
- CC(C)N(Cc1ccccc1)C(=O)c1cnc2n(c1=O)CCS2
  >57	24%
- CN1CCN(c2ncnc3ccc(-c4ccccc4Cl)cc23)CC1
  >57	?
- CCOC(=O)c1ccc(N2C(=O)C(C)=C(C)C2=O)cc1
  >57	-1%
- COc1ccc(OC)c(NC(=O)C2CCN(c3nc(C)cc(C)n3)CC2)c1
  >57	0%

New compounds follow
compound,SmPrx2 inh,Anthrax LT inh
O=C(O)[C@H]1CCCC[C@@H]1c1c2ccc(=O)c(O)c-2oc2c(O)c(O)ccc12,>57,?
O=C(Cc1n[nH]c(=O)c2ccccc12)NCc1ccccn1,>57,12%
O=C1c2cccnc2C(=O)N1Cc1cccs1,>57,-4%
O=C(C1CCN(S(=O)(=O)c2cccc3nsnc23)CC1)N1CC=C(c2ccccc2)CC1,>57,?
CCOc1cccc(NC(=O)C2CCCN(S(=O)(=O)c3ccc(OC)cc3)C2)c1 (configuration not stated),>57,-24%
O=C(Nc1cccnc1)Nc1ccc2c(c1)OCO2,>57,-10%
Nc1nonc1-c1nc2ccccc2n1CCC(=O)O,>57,6%
CCC(=O)N1c2ccc(S(=O)(=O)CCC(=O)N3CCn4c3nc3ccccc34)cc2CC1C (configuration not stated),>57,19%
C#CCN1C(=O)C2(C(C#N)=C(N)OC(C)=C2C(=O)OCc2ccccc2)c2ccccc21 (configuration not stated),>57,-7%
CC1Oc2ccccc2C=C1C1/C(=C(/O)c2ccccc2)C(=O)C(=O)N1CCCN(C)C (configuration not stated),.,-3%
Cc1ccc(OCCCC(=O)Nc2ccc3c(c2)OCO3)cc1,>57,-2%
CCOC(=O)N1CCN(CC(O)c2ccc3c(c2)CCN3)CC1 (configuration not stated),>57,-13%
Cc1nn(Cc2ccccc2Cl)c(C)c1C(=O)Nc1nnc(C2CC2)s1,>57,-4%
CCOC(=O)c1oc2ccccc2c1CSc1nnnn1-c1ccccc1,>57,-6%
C=CCn1c(SCc2c(C)noc2C)nc2sc3c(c2c1=O)CCCCC3,>57,13%
CCCCNc1nc(C)nc2c1nc(-c1ccccc1)n2CC(C)(C)CN(C)C,.,3%
CC(C)C[C@@H](CC(=O)N[C@@H](CCCN)CC(=O)N[C@@H]1CCCC[C@H]1C(=O)N[C@H](CC(=O)N[C@@H](CCC(=O)O)CC(=O)O)Cc1ccccc1)NC(=O)[C@@H]1CCCC[C@H]1N,>57,-11%
CCCCNC(=O)C(c1ccc(-c2ccccc2)cc1)N(CCN1CCOCC1)C(=O)CCCCCN1C(=O)NC(c2ccc([N+](=O)[O-])cc2)C(C(=O)OCc2ccccc2)=C1C (configuration not stated),.,2%
Nc1csnc1C(=O)O,>57,-19%
COc1ccc(CCn2c(C)cc(C(=O)CSc3nnc(N)s3)c2C)cc1,>57,?
O=C(Nc1ccc2c(c1)OCO2)C(c1ccc(Cl)cc1)N1CCN(C(=O)c2ccco2)CC1 (configuration not stated),>57,8%
Cc1cc(Oc2ccccc2)nc2ccc(O)cc12,>57,?
Cn1c(N2CCN(C(=O)C34CC5CC(CC(C5)C3)C4)CC2)nc2ccccc21,>57,-5%
Cc1ccc(N(CC(=O)NCc2ccncc2)S(C)(=O)=O)cc1Cl,>57,?
CCC(=NCc1ccco1)c1c(O)n(Cc2ccccc2)c(=O)[nH]c1=O,>57,-21%
Cc1cccc(CNc2ncncc2-c2ccc(C(=O)N(C)C)cc2)c1,>11,?
CCOC(=O)C1CCN(S(=O)(=O)c2cccc(-c3cn4cccc(C)c4n3)c2)CC1,>57,-24%
Cc1cc2cc(OCC(=O)O)ccc2n1C,>57,8%
Nc1c(C(=O)NCCN2CCOCC2)c2nc3ccccc3nc2n1CCc1ccccc1F,>57,?
CCOc1c(Br)ccc2c1sc1nc[nH]c(=O)c12,>57,10%
CCN1CCC(O)([C@H](C(=O)O)c2ccccc2)CC1,>57,-1%[8 µM]
Cc1ccc(S(=O)(=O)NCCC(=O)N2CCCCC2)cc1,>57,-6%
O=C(CSc1nccn1-c1ccccc1)NCc1ccc2c(c1)OCO2,>57,-12%
CC1(C)CC(=O)C2=C(C1)NC(=O)CC2C(=O)NCc1ccc(F)cc1 (configuration not stated),>57,?
Cn1c(=O)c2c(nc(SCC(=O)N3CCCc4ccccc43)n2C)n(C)c1=O,>57,-5%
COC(=O)c1ccc2c(c1)N(C)CCS2,.,10%
C=CCn1c(=N)c(C(=O)NCCCOC)cc2c(=O)n3cccc(C)c3nc21,.,?
Cc1ccc(N2C(=O)[C@@H]3[C@H](C2=O)C2c4ccccc4C=CN2[C@@H]3C(=O)c2ccco2)c(C)c1 (some centres not stated),>57,?
O=C(O)c1ccccc1S(=O)(=O)NCC(O)COc1ccc(Br)cc1 (configuration not stated),>57,-5%
S=C(Nc1ccc2cn[nH]c2c1)Nc1ccc2cn[nH]c2c1,>57,0%[8 µM]
CCOC(=O)c1cc2c(ccn2C)n1CC(=O)N1CCN(c2ccc(F)cc2)CC1,>57,-19%
CC(=O)c1cccc(NC(=O)N2CCCC2C(=O)Nc2ccccc2C)c1 (configuration not stated),>57,-5%
CN(C)c1ccc(/C=C2/C(=O)Nc3ccccc32)cc1,>57&>57,13µM*
CN(C)S(=O)(=O)c1cccc(C(=O)N2CCc3ccccc32)c1,>57,-3%
COC(=O)C1=C(C)N(Cc2cccnc2)C(=O)C1,.,1%
Cc1noc(C)c1CSc1ccccc1C(=O)N1CCN(c2ccccc2)CC1,>57,4%
CC(=O)c1cc(-c2nc3ccccc3n2C)n(C)c1,>57,-5%
